MARV entry inh: qHTS for Inhibitors of binding or entry into cells for Marburg Virus | Marburg virus pseudotype entry/binding inhibition, cell-based; control for the full effect not named in the record; many of its hits are not listed in these tables | 6.5% of 18,000 active | Potency, µM (series often up to 49.2 µM), for inactives: at the top dose activity change, negative = inhibition, most hits filed as inhibitors | AID 720532, 2013; active means well fitted inhibition curve with a large enough effect; inconclusive means small, poorly fitted or top-dose-only effect; inactive means no such curve, though single readings can be large or run the other way; tested in HEK293 cells; further: luciferase read-out
Lassa entry: qHTS for Inhibitors of binding or entry into cells for Lassa Virus; Potency, µM (doses to about 49.2 µM), for the others: at the top dose activity change, negative = inhibition, usual class: inhibitors; AID 720533, 2013; Lassa virus pseudotyped entry inhibition, cell-based qHTS; control for the full effect not named in the record; many of its hits are not listed in these tables; 4.1% of 18,000 active; active = well fitted inhibition curve with a large enough effect; inconclusive = small, poorly fitted or top-dose-only effect; inactive = no such curve, though single readings can be large or run the other way; tested in HEK293 cells; further: luciferase read-out
Active calls of the source: *; ? = inconclusive; . = no result given; & = joins results of further samples; [ ] = remark or other dose. On the % scale 0 is the no-effect control and ±100 the full control effect; potency means the concentration at half of the fitted maximal effect. Only part of the results is shown, so the mix of outcomes need not match the whole.

1: CC[C@H](C)CCCCC(=O)N[C@@H](CCN)C(=O)N[C@H](C(=O)N[C@@H](CCN)C(=O)N[C@H]1CCNC(=O)[C@@H]([C@H](C)O)NC(=O)[C@H](CCN)NC(=O)[C@H](CCN)NC(=O)[C@H](CC(C)C)NC(=O)[C@@H](CC(C)C)NC(=O)[C@H](CCN)NC1=O)[C@@H](C)O
2: C[C@H]1N[S+](=O)([O-])c2ccc(Br)cc2O[C@@H]1c1ccccc1
3: COc1ccc(OC)c(C[C@H](C)N)c1
4: S=C(S)N1CCNCC1
5: Cn1ccc2c(-c3ccc(C(=O)O)cc3)cc3c(c21)C1CCC3O1 (configuration not stated)
6: C/C(=C(/CCO)SSCC1CCCO1)N(C=O)Cc1cnc(C)nc1N (configuration not stated)
7: N[C@](CC1c2ccccc2Oc2ccccc21)(C(=O)O)[C@@H]1C[C@@H]1C(=O)O
8: CCC(=O)NC1Cc2ccccc2C(c2ccccc2)C1 (configuration not stated)

Compound | 1 | 2 | 3 | 4 | 5 | 6 | 7 | 8
MARV entry inh | 3%[17.8 µM] | 8% | -19%[107 µM] | 4% | 111%[activator] | 15%&6% | -3% | 4%
Lassa entry | -9%[17.8 µM] | 16% | -8%[107 µM] | -5% | 87%[activator] | 4%&-6% | -1% | -3%

9: COC(=O)C1=C(C(=O)OC)[C@@H]2N(CC=C(C)C)c3ccccc3[C@@]23CCC(=O)N(Cc2cccc(C(F)(F)F)c2)C3=N1
10: Cc1cc2oc(=O)cc(-c3ccccc3)c2c(C)c1-c1ccc(N(C)C)cc1
11: COC(=O)C1CCCCN1Cc1ccc2c(c1)CN(Cc1cc(OC)c3c(c1)OCO3)CCO2 (configuration not stated)
12: CCN1C(=O)N(S(=O)(=O)c2ccc(C)cc2)C(c2ccccc2)C(C(=O)OC)=C1C (configuration not stated)
13: COc1ccc([C@]23Cc4cc(OC)c(OC)cc4[C@H](O2)c2c(cc(C)n(Cc4ccccc4)c2=O)O3)cc1
14: O=C(c1cncs1)N(Cc1cc2cc3c(cc2nc1N1CCOCC1)CCC3)CC1CCCO1 (configuration not stated)
15: O=C(c1cccnc1)C1CCCN(Cc2ccc3c(c2)CN(C(=O)c2cn4ccccc4n2)CCO3)C1 (configuration not stated)
16: O=C(O)c1cc([N+](=O)[O-])cc([N+](=O)[O-])c1O

Compound | 9 | 10 | 11 | 12 | 13 | 14 | 15 | 16
MARV entry inh | -28%[8.59 µM] | -22% | -5% | 17%[8.59 µM] | 40%[activator][8.59 µM] | 7% | 28% | 2%
Lassa entry | 2%[8.59 µM] | ? | 0% | -2%[8.59 µM] | 40%[activator][8.59 µM] | -11% | 1% | 3%

17: N[C@H](CCC(=O)NCC(=O)O)C(=O)O
18: COc1cc2c(cc1OC)-c1cc(=Nc3c(C)cc(C)cc3C)n(C)c(=O)n1CC2
19: CCCCCCN1C[C@@H](O)[C@H](n2cc(C3CC3)nn2)C[C@H]1c1ccccc1
20: O=S1(=O)CCSCCN1Cc1ccc(F)cc1F
21: CN(C)CC(C)(O)c1ccc2c(c1)CN(Cc1cnn(-c3ccccc3)c1)CCO2 (configuration not stated)
22: COc1cc(/C=C(\C#N)C(N)=O)cc(CSc2nc3ccccc3s2)c1O
23: C=C1[C@@H]2CCN3C(=O)N[C@@H](c4ccccc4)[C@@]1(C(=O)OCC)C23 (some centres not stated)
24: Cc1nc2ccccc2nc1CN1CCOc2ccc(CN3CCc4sccc4C3)cc2C1

Compound | 17 | 18 | 19 | 20 | 21 | 22 | 23 | 24
MARV entry inh | -5%&-2%&8% | 13µM* | -14% | 23% | -16% | 3%&11%&-3% | ? | 2%
Lassa entry | 4%&-7%&-3% | 11µM* | . | 18% | -13% | -11%&-1%&-19% | 17%[8.59 µM] | 0%

25: CC(C)OC(=O)[C@@H]1CC[C@H](C)[C@@H](CCCCO)O1
26: COc1ccc2c(c1)CO[C@H]([C@H](O)CO)[C@H]2C=Cc1ccccc1
27: C[C@@H](c1ncncc1F)C(O)(Cn1cncn1)c1ccc(F)cc1F (some centres not stated)
28: c1ccc2c(CCC3CCNCC3)c[nH]c2c1
29: CC(=O)NC1C(O)C[C@@](O)(C(=O)O)OC1[C@@H](O)C(O)CO (some centres not stated)
30: Cc1ccc(N)c(N)c1
31: CCCN1CCO[C@@H]2c3cc(O)ccc3OC[C@H]21
32: O[C@@H]1[C@@H]2c3cc4c(cc3CN3CCC(=C[C@@H]1O)[C@H]23)OCO4

Compound | 25 | 26 | 27 | 28 | 29 | 30 | 31 | 32
MARV entry inh | 3% | -6%[8.59 µM] | -17% | ? | 9% | 27% | 20%&25% | 2.5µM*
Lassa entry | 5% | . | -4% | 1% | 4% | 18% | -2%&7% | ?

33: CC(C)COC(=O)c1ccc2[nH]c(O)c(C=Nc3ccc(S(N)(=O)=O)cc3)c2c1
34: COc1ccc2nc3cc(Cl)ccc3c(NCCCN3CCN(CCCNc4c5ccc(Cl)cc5nc5ccc(OC)cc45)CC3)c2c1
35: Cc1ccc(NC(=O)c2ccnc(N3CCCC3)c2)cc1-c1ccc(C(=O)NCC2CC2)cc1
36: CO/N=C(\C(=O)N[C@@H]1C(=O)N2C(C(=O)O)=C(CSc3nc(C)c(CC(=O)O)s3)CS[C@H]12)c1csc(N)n1
37: O=C1Nc2ccc(-c3cccnc3)cc2C1=Cc1cc(Br)c(O)c(Br)c1
38: S=C(NCCCc1cnc[nH]1)NCCCN(Cc1ccc(Cl)c(Cl)c1)c1ccc(Br)cn1
39: Cc1nc2c(c(=O)[nH]1)CSCC2
40: Cc1ccc(CN2CCOc3ccc(CN4CCC(O)(c5cccnc5)CC4)cc3C2)cc1

Compound | 33 | 34 | 35 | 36 | 37 | 38 | 39 | 40
MARV entry inh | ? | ? | 45%[activator] | -16% | ? | 20µM* | 4% | ?
Lassa entry | . | 1% | . | 3% | ? | ? | -4% | -19%

41: O=C1CCC=C1C(O)c1ccc2c(c1)OCO2 (configuration not stated)
42: c1ncc(CCCC2CCNCC2)[nH]1
43: O=C(C1CC12CCN(Cc1cccc3cccnc13)CC2)N1CCN(Cc2cccs2)CC1 (configuration not stated)
44: COC(=O)C1=C(C)N(Cc2ccccc2)C(=NCCc2c[nH]c3ccccc23)NC1c1ccc(Br)cc1 (configuration not stated)
45: Cc1ccc2c(c1)C1CN(C)CCC1N2 (configuration not stated)
46: Cc1c2c(c(O)c3c(O)cccc13)C(=O)O[C@H]2C1C(N(C)C)C(O)=C(C(N)=O)C(=O)[C@H]1O (some centres not stated)
47: COc1cc(C2CC(=O)Oc3c(C(C)C)ccc(C)c32)cc(OC)c1OC (configuration not stated)
48: Cc1ccc(-c2ccc(C(=O)N3CCc4nnc(CNC(=O)c5ccccc5)n4CC3)cc2)cc1

Compound | 41 | 42 | 43 | 44 | 45 | 46 | 47 | 48
MARV entry inh | -20% | 3% | ? | ? | -4% | 8.9µM* | -2% | -24%
Lassa entry | 2% | 1% | -3% | -14%[8.59 µM] | -1% | -1% | -13% | 2%

The last 3 entries of the section above are carried over, then new ones follow.
46: Cc1c2c(c(O)c3c(O)cccc13)C(=O)O[C@H]2C1C(N(C)C)C(O)=C(C(N)=O)C(=O)[C@H]1O (some centres not stated)
47: COc1cc(C2CC(=O)Oc3c(C(C)C)ccc(C)c32)cc(OC)c1OC (configuration not stated)
48: Cc1ccc(-c2ccc(C(=O)N3CCc4nnc(CNC(=O)c5ccccc5)n4CC3)cc2)cc1
49: COc1ccccc1C1(O)CCN(CCCn2c3ccccc3c3ccccc32)CC1
50: CN(C)CCCn1c(-c2nonc2N)nc2cnccc21
51: CCCCCCCC/C=C\CCCCCCCC(=O)OC[C@@H](COP(O)(O)=S)OC
52: C[C@@H]1Cc2c(Cl)cc(C(=O)N[C@H](Cc3ccccc3)C(=O)O)c(O)c2C(=O)O1
53: CCC(=O)C[C@@H](NC(=O)OC)c1ccc(F)cc1
54: CC(=O)c1ccc2c(c1)N(CCCN1CCN(CCO)CC1)c1ccccc1S2
55: c1ccc(CCc2nc(-c3ccccc3)oc2Nc2ccc3ccccc3c2)cc1
56: CCOC(=O)C(=O)C1(C(=O)OCC)Oc2cc(OC)cc(OC)c2C(=O)C1c1ccccc1 (configuration not stated)

Compound | 46 | 47 | 48 | 49 | 50 | 51 | 52 | 53 | 54 | 55 | 56
MARV entry inh | 8.9µM* | -2% | -24% | 4µM* | ? | -25% | ? | 6%[8.59 µM] | 10µM* | -22%[8.59 µM] | 15%
Lassa entry | -1% | -13% | 2% | ? | -12% | 5% | ? | 2%[8.59 µM] | 28µM* | 14%[8.59 µM] | -10%

57: CCCCNC(=O)c1sc2ncnc(NCC3CCCO3)c2c1C (configuration not stated)
58: COC(=O)N[C@H](C(C(=O)OC)=C(C)NCc1ccccc1)c1ccccc1
59: CN1CCN(C2CN(Cc3ccc([N+](=O)[O-])cc3)S(=O)(=O)C2)CC1 (configuration not stated)
60: COc1ccc(COC(=O)NN=C2C[C@@H](O)[C@@H](O)[C@@H]3[C@H]4C(=O)N(c5cccc(Oc6ccccc6)c5)C(=O)[C@@H]4CC[C@H]23)cc1
61: C=CCC1(O)CCOc2ccccc21 (configuration not stated)
62: CCOC(=O)CCN(SN(C)C(=O)Oc1cccc2c1OC(C)(C)C2)C(C)C
63: O=S(=O)(NCc1ccccc1)c1ccccc1NCCc1ccccc1
64: C[C@@H]1O[C@@H](OC[C@H]2O[C@@H](Oc3c(-c4ccc(O)c(O)c4)oc4cc(O)cc(O)c4c3=O)[C@H](O)[C@@H](O)[C@@H]2O)[C@H](O)[C@H](O)[C@H]1O

Compound | 57 | 58 | 59 | 60 | 61 | 62 | 63 | 64
MARV entry inh | ? | -4%[8.59 µM] | 31%[activator] | 9%[8.59 µM] | 1% | -21% | 11% | 11%
Lassa entry | -28% | . | -5% | . | -3% | -9% | 45%[activator] | -16%

65: CC1(C)CO[C@@H](CC(=O)O)CN1
66: CCc1ccc(S(=O)(=O)NCc2nc(N3CCCC3)c3cccc(C)c3n2)cc1
67: C=CC[N+]1([C@H]2C[C@H]3[C@@H]4CC[C@H]5C[C@H](OC(C)=O)[C@@H](N6CCCCC6)C[C@]5(C)[C@H]4CC[C@]3(C)[C@H]2OC(=O)CC)CCCCC1
68: Cc1c(C(=O)N(C)C2CCOC2)cnn1-c1ncc2c(n1)-c1ccccc1CCC2 (configuration not stated)
69: Cc1c(C)c2c(c(C)c1O)CC[C@@](C)(CCC[C@H](C)CCC[C@H](C)CCCC(C)C)O2
70: CSc1ncccc1C(=O)N1CCc2nnc(C(NC(=O)c3ccoc3)C(C)C)n2CC1 (configuration not stated)
71: COc1cccc([C@@H]2Oc3ccc(Br)cc3C(=O)[C@H]2OC(=O)N[C@H](C)C2CCCCC2)c1
72: CS(=O)(=O)CCNCc1ccoc1-c1ccc2ncnc(Nc3ccc(OCc4ccccc4)cc3)c2c1

Compound | 65 | 66 | 67 | 68 | 69 | 70 | 71 | 72
MARV entry inh | 5% | ? | ? | 82%[activator] | 2%&13%&-8%&8% | -27% | -6% | ?
Lassa entry | -5% | ? | -8% | -3% | -11%&14%&-14%&-20% | -3% | 7% | .

Entries of single compounds, quoted from the list:
`CC1(C)CO[C@@H](CC(=O)O)CN1` is entered as MARV entry inh: 5%; Lassa entry: -5%
`CSc1ncccc1C(=O)N1CCc2nnc(C(NC(=O)c3ccoc3)C(C)C)n2CC1` (configuration not stated) is entered as MARV entry inh: -27%; Lassa entry: -3%

Going on with the list:
73: COC(=O)CC=C[C@@H](C)[C@@H](C=NOC[C@@H](C)[C@H](OCc1ccccc1)C(C)C)NS(=O)(=O)c1ccc(C)cc1
74: CN1C(=O)OC(C)(C)C1=O
75: CN1C[C@@H](C(=O)N[C@@]2(C)O[C@]3(O)C4CCCN4C(=O)[C@@H](Cc4ccccc4)N3C2=O)C=C2c3cccc4[nH]cc(c34)C[C@@H]21 (some centres not stated)
76: CC(C)C[C@H](N)C(=O)N[C@H](C(=O)N[C@@H](CCCN=C(N)N)C(=O)N[C@H](CS)C(=O)NCC(=O)N[C@@H](CCCCN)C(=O)N[C@@H](Cc1cnc[nH]1)C(=O)N[C@@H](CO)C(=O)N[C@@H](CCCN=C(N)N)C(=O)O)C(C)C
77: COc1ccccc1C1CN(Cc2ccc(Sc3nncn3C)o2)Cc2ccccc2O1 (configuration not stated)
78: CC1=CC2C(=O)c3cccc(O)c3C(=O)C2C(O)=C1 (configuration not stated)
79: CCCOC(=O)c1cc2c(cn1)[nH]c1ccccc12
80: CN(C)CCOC1=Cc2ccccc2Sc2ccc(Cl)cc21

Compound | 73 | 74 | 75 | 76 | 77 | 78 | 79 | 80
MARV entry inh | -14%[8.59 µM] | -9%[17.8 µM] | -25% | -6% | 3% | 11% | 19% | 13µM*
Lassa entry | . | -1%[17.8 µM] | -25% | 6% | -27% | -5% | -14% | ?

By substructure, those above containing a Cl atom (4)
34: COc1ccc2nc3cc(Cl)ccc3c(NCCCN3CCN(CCCNc4c5ccc(Cl)cc5nc5ccc(OC)cc45)CC3)c2c1
38: S=C(NCCCc1cnc[nH]1)NCCCN(Cc1ccc(Cl)c(Cl)c1)c1ccc(Br)cn1
52: C[C@@H]1Cc2c(Cl)cc(C(=O)N[C@H](Cc3ccccc3)C(=O)O)c(O)c2C(=O)O1
80: CN(C)CCOC1=Cc2ccccc2Sc2ccc(Cl)cc21

Compound | 34 | 38 | 52 | 80
MARV entry inh | ? | 20µM* | ? | 13µM*
Lassa entry | 1% | ? | ? | ?
